Screens: PubChem, Broad Institute
Beta apoptosis = inhibitors of cytokine-induced beta cell apoptosis, primary screen, luminescence. protection from apoptosis, % (no concentration beside the values). INS-1E cytokine-induced death, ATP luminescence, 48 h; percent of positive-control rescue, neutral wells zero. hit rate 0.8% among 300,000;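 active means all replicates at 75% or more, or half of them and the mean; inconclusive means half reach 75% but not the mean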;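 further: 0% = cytokine-treated negative control wells and 100% = positive control rescue; higher means more ATP so stronger rescue from cytokine killing; wells of about 40 µL received 100 nL stock; the first replicate is given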
Calb FLC = C. albicans growth inhibition with fluconazole, primary screen, CaCi-2 strain, Alamar Blue fluorescence; C. albicans CaCi-2 (fluconazole-resistant clinical isolate) + fluconazole, 48 h; growth inhibition, % (concentration not given with the values); hit rate 0.57% among 300,000; AID 1979, 2009;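 active means most replicates above 75%; inconclusive means exactly half above 75%; inactive means most below 75%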;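 further: all wells also contain fluconazole at 8 µg/ml as a sub-toxic cotreatment; 0% = median of DMSO wells and 100% = median of geldanamycin control wells; wells of about 8 µL received 7.5 nL stock; the first replicate is given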
rRNA inh HTS = reduced GFP signal of wild-type E. coli, primary screen, bacterial rRNA inhibitor project, GFP/RFP fluorescence, OD600, single point. E. coli WT GFP vs humanized-ribosome RFP mutants, 24 h; hits give low values; DMSO median 0, no signal -100. GFP signal change (wild-type ribosome), % (test concentration not listed). hit rate 1.6% among 350,000. AID 720706, 2013;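 active means significant combined selectivity score with lowered wild-type GFP, culture density cut under 30%, mutant RFP and density less affected; inactive means any of these conditions unmet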; further: one replicate is shown; some compounds called inactive have numbers as strong as hits
RanGTP-Imp inh = inhibitors of RanGTP-importin-beta interaction, primary screen, biochemical, FRET, CFP-Ran, YFP-importin-beta, homogeneous; cell-free CFP-Ran/YFP-importin-beta FRET ratio; inhibition, % (test concentration not listed); hit rate 1.1% among 300,000; AID 2216, 2009;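 active means most replicates above 15%; inconclusive means exactly half above 15%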;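 further: 0% = DMSO wells and 100% = Ran loaded with GDP instead of GTP; wells of about 40 µL received 100 nL stock; the first replicate is given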
T cruzi repl = inhibitors of intracellular T. cruzi growth, primary screen, luminescence, NIH3T3 host cells. T. cruzi beta-gal in NIH3T3, 90 h. inhibition, % (concentration not given with the values). hit rate 1.4% among 300,000;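 active means mean inhibition across valid replicates above about 55%, limit read from the data; inconclusive means mean below that limit but half or more replicates reach it; inactive means mean below it, under half of replicates reach it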;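 further: signal also drops with host cell toxicity which is not excluded here; 0% = plate median of DMSO wells and 100% = zero luminescence signal; higher percent means less beta-gal luminescence so fewer parasites; stock transfer was 50 nL into about 50 µL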
FGF22 binding = binders of human FGF22 protein, primary screen, FGF22 synaptogenesis inhibitor project, biophysical, thermal shift, single point; recombinant FGF22 thermal shift, SYPRO orange fluorescence; percent of sucrose octasulfate shift, DMSO zero; calls only at 9.99 µM; hit rate 1.5% among 340,000;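 active means melting point raised past a set limit in the mean and every replicate; inconclusive means no clear call; three in four hits are not shown here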
Target sequence (Q9HCT0 whole entry, looked up): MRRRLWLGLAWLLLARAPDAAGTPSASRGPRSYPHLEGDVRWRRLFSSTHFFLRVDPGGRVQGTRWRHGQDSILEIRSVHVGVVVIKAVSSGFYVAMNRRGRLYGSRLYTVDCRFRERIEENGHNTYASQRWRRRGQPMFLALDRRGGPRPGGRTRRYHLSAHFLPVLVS
AF4-AF9 inh = inhibitors of AF4 peptide binding to AF9, primary screen, biochemical, AlphaScreen, biotin-AF4 peptide, FLAG-AF9, single point. Protein AF-9 (Homo sapiens), P42568. inhibition, % at 10 µM. hit rate 0.47% among 350,000. AID 651704, 2012;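 active means every replicate reaching a set inhibition limit, whatever the replicate mean, cut at about 25% in these data; inconclusive means mean inhibition reaches that limit but some replicates miss it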;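 further: 0% = plate neutral control median and 100% = total signal loss; the record names both 10 and 1 µM as test concentration; the first replicate is given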
Target sequence (P42568 whole entry, looked up): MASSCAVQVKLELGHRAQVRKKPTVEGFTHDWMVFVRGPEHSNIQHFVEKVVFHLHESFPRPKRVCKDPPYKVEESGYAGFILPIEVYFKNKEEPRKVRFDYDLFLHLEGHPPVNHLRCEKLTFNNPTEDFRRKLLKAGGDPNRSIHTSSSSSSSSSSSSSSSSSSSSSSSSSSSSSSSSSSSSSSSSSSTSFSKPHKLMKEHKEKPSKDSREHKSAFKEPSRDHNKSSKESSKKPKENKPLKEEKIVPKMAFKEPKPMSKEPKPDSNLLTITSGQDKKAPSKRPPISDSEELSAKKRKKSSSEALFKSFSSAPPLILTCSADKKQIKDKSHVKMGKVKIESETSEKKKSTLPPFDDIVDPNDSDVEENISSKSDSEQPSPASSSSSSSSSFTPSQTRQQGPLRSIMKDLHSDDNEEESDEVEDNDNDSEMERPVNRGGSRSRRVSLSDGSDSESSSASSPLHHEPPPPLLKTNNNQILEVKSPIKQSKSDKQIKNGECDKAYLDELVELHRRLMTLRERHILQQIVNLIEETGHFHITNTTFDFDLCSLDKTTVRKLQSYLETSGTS
ALR H2O2 inh = inhibitors of human ALR sulfhydryl oxidase, primary screen, biochemical, H2O2 detection, HRP-luminol luminescence, single point | FAD-linked sulfhydryl oxidase ALR (Homo sapiens), P55789 | purified ALR, DTT oxidation | inhibition, % (test concentration not listed) | hit rate 3.8% among 290,000 | AID 485317, 2010;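 active means mean and each replicate at 75% or more; inconclusive means only one of the two met; inactive means neither met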;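 further: stock transfer was 7.5 nL into about 7.5 µL; 0% = neutral wells and 100% = wells with inactivated enzyme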
Target sequence (P55789 whole entry, looked up): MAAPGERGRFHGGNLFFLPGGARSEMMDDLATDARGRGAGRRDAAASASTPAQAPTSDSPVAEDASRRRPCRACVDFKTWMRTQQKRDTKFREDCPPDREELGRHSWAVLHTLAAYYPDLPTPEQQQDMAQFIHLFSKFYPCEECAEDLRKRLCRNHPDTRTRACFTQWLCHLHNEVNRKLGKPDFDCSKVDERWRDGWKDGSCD
rRNA inh HTS OD600 = further read-out of rRNA inh HTS, marked with its call; OD600 change, %; measured here: OD600 growth;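 optical density of the mix in the first replicate; 0 = DMSO median and -100 = no signal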
rRNA inh HTS RFP = also measured in rRNA inh HTS; calls as there; RFP signal change, %; measured here: RFP humanized mutant strains;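 first replicate; 0 = DMSO median and -100 = no signal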
Starred values were filed as active, the others as inactive; i = inactive; ? = inconclusive; · = no result given. Not all compounds are listed; the hit share may differ from the screen's.

SMILES	Beta apoptosis	Calb FLC	rRNA inh HTS	rRNA inh HTS OD600	rRNA inh HTS RFP	RanGTP-Imp inh	T cruzi repl	FGF22 binding	AF4-AF9 inh	ALR H2O2 inh
COc1ccc(C(=O)N2CCN(Cc3ccc(OC)c(OC)c3)CC2)cc1	1	9	16	8	0.9	-1.1	0	i	4.7	-3
CCOC(=O)c1cnc2c(OC)cccc2c1N1CCN(c2ccc(OC)cc2)CC1	6	1	·	·	·	-1.9	28	·	·	33
Cc1nc2ccc(NC(=S)NCc3ccccc3)cc2nc1C	1	-15	-19	-25	-4.1	3.3	-7	i	2.0	-40
Cc1cc(NC(=O)CN(C)S(=O)(=O)c2cccc(Cl)c2)no1	-3	12	19	21	2.4	4.6	-6	i	-0.1	0
CC(C)Cc1c2c([nH]c(=S)c1C#N)CCCC2	7	18	·	·	·	-3.1	4	·	·	·
CCCn1c(SCC(=O)NC2CCCc3ccccc32)n[nH]c1=O (centres undefined)	-9	13	-1	4	-6.2	7.6	-15	i	-0.8	-3
CCOc1ccc(CCNC(=O)COC(=O)CNS(=O)(=O)c2ccc(C)cc2)cc1OCC	-4	2	8	8	1.6	-3.4	1	i	-2.0	2
O=C(O)c1ccc2c(=O)[nH]c(CN3CCOCC3)nc2c1	-4	7	·	·	·	-4.2	-12	·	·	6
CN(C)CCC1CCN(c2cc(C#N)c(C#N)cc2[N+](=O)[O-])CC1	-3	29	19	12	6.5	-6.5	79*	i	0.6	-24
CN1C(=O)[C@@H]2[C@H](C1=O)[C@@H]1C(=O)Nc3ccccc3C(=O)N1[C@@H]2c1ccc(F)cc1	-3	-14	5	2	-7.0	-3.1	-18	i	-10	1
N#CC(C#N)=C1NC2(CCCC2)Cc2ccccc21	-4	2	2	-9	-7.4	-2.3	-1	i	-5.1	-3
COc1ccc(Cl)cc1S(=O)(=O)NC(C)C(=O)NCCCn1ccnc1 (centres undefined)	·	2	13	20	-2.5	0.9	-2	i	-0.3	-15
COc1ccc(N2CCN(CC(O)COC(c3ccccc3)c3ccccc3)CC2)cc1 (centres undefined)	-8	-8	-8	-58	15	0.6	3	i	16	24
O=C(NCc1nc2ncc(Br)cc2[nH]1)c1ccccc1	3	-14	·	·	·	3.4	-10	·	·	-23
Fc1ccc(CNc2nc(-c3ccccc3)nc3ccccc23)cc1	·	-7	-60	-76	-23	-2.3	57*	i	-7.3	·
COc1ccc2c(c1)O[C@H](c1ccc3c(c1)OCO3)[C@@H](O)C2=O	25	-1	·	·	·	6.0	-26	·	·	16
CCOc1ccc(C2/C(=C(\O)c3ccc4c(c3)OCCO4)C(=O)C(=O)N2CCCN2CCOCC2)cc1 (centres undefined)	-12	6	-8	-1	-2.6	1.3	-22	i	4.7	4
CCN(CC)C(=O)[C@H]1CC(CC(=O)NCCCOC)C(=O)N2CCc3c([nH]c4ccccc34)[C@]12C (some centres undefined)	-5	·	7	8	-3.3	·	·	i	-0.2	·
Cn1c(=O)n(C)c2cc(S(=O)(=O)NCc3ccccc3)ccc21	-2	-5	·	·	·	0.0	-9	·	·	-3
O=C(Nc1ccccc1N1CCOCC1)c1ccc([N+](=O)[O-])s1	37	·	12	6	0.4	·	·	i	0.8	-31
C=CCn1c(SCC(=O)N2CCN(CCO)CC2)nc2sc3c(c2c1=O)CCC3	·	-1	-2	-9	0.0	2.1	6	i	3.2	-1
CCC(C)c1ccc2oc(-c3ccc(NC(=O)Cn4cnc5c(=O)n(C)c(=O)n(C)c54)cc3)nc2c1 (centres undefined)	13	5	·	·	·	-3.8	32	·	·	-1
CC1(C)C(=O)Nc2ccccc2N1C(=O)CSc1nnc2ccccn12	-3	?	15	3	4.7	-1.7	-1	i	-0.4	45
COc1ccccc1/C=C/C(=O)N1CCC(c2ccccc2)C1 (centres undefined)	-3	4	-23*	-15*	-2.3*	?	7	i	3.7	-25
CCNCc1cc(Cl)c(OCc2ccccc2)c(OCC)c1	2	-64	-12	-31	31	-1.4	5	·	1.3	-1
Cc1nnc(SCC(=O)N2CCOCC2)s1	-1	-4	12	8	2.0	-2.3	2	·	·	-3
NC(=O)c1ccccc1NC(=O)c1ccc2c(c1)OCO2	1	-1	16	11	1.0	1.6	-6	i	-1.2	-3
COc1ccc(S(=O)(=O)Cc2ccc(C(=O)NCCc3cc(OC)ccc3OC)o2)cc1	-1	-11	-17	-10	-5.8	-4.6	1	i	0.4	-6
COC(=O)CCC(=O)c1oc2ccc(OC)cc2c1N	-8	10	·	·	·	2.9	1	·	·	12
CCOC(=O)c1c(-c2ccc(C)cc2)csc1NC(=S)NC(=O)c1ccccc1	20	-1	·	·	·	-0.8	23	·	·	-1
COc1ccc2oc(C(=O)OCC(=O)NCCc3ccccc3)c(C)c2c1	0	6	7	-5	-0.6	-0.3	-6	i	-16	·
CC(NC(=O)[C@H](C)NC(=O)c1ccco1)c1ccc(S(N)(=O)=O)cc1 (some centres undefined)	-3	-15	·	·	·	-0.5	9	i	0.4	·
CSc1ccc(CN2CCCCCC2)cc1	5	8	8	9	-1.1	-5.0	28	i	5.3	·
COC(=O)c1ccccc1-n1c(CCC(=O)O)ccc1-c1ccccc1	-5	13	4	5	1.5	0.7	-4	i	-3.3	71
CN(C)c1nnnn1Cc1ccccc1	-4	-10	1	3	-1.8	-1.2	-17	i	-7.8	-5
Cc1nc2sc(C(c3ccc(Cl)cc3)N3CCN(c4ccccc4F)CC3)c(O)n2n1 (centres undefined)	2	14	·	·	·	-6.6	-1	·	·	0
Cn1c(Cn2nnc3ccccc32)nnc1SCC(=O)c1ccccc1F	-2	-1	·	·	·	6.4	-3	·	·	26
Cn1c(=O)cc(OCCCC(=O)NCc2ccccn2)c2ccccc21	-4	15	2	7	0.8	23*	-1	·	·	-2
CCOC(=O)c1sc2ccc(S(=O)(=O)N3CC(C)CC(C)C3)cc2c1N (centres undefined)	13	-21	·	·	·	3.7	31	·	·	·
CCOC(=O)N1CCN(C(=O)c2ccc(OC)cc2)CC1	-1	23	11	0	-0.4	1.5	7	i	-1.1	-6
CCC(CC)c1nnc(NC(=O)CCS(=O)(=O)Cc2ccccc2)s1	·	22	5	6	-2.4	?	3	i	21	-16
CC[n+]1ccc2cc(OC)c(OC)cc2c1Cc1ccc(OC)c(OC)c1	3	2	·	·	·	-2.2	10	·	-7.3	-14
COc1ccc(C)cc1NC(=O)CN1C(=O)COc2ccc(C)cc21	-7	5	4	7	-2.0	?	0	i	0.7	·
C=CCC1(C)C(=O)N(c2ccccc2)c2ccccc21 (centres undefined)	-5	-14	·	·	·	-3.3	-2	·	·	-1
CCC(=O)N(Cc1ccco1)Cc1cc2cc3c(cc2[nH]c1=O)OCO3	3	8	10	-4	-2.2	0.4	9	i	-1.5	3
Cc1ccc(NC(=S)c2ccncc2)cc1	-1	4	4	8	-1.7	-5.1	-20	i	1.4	7
COc1ccc(OC)c(Nc2nc(N(C)c3ccccc3)nc(N)c2[N+](=O)[O-])c1	20	8	10	22	4.0	-1.9	69*	i	2.8	8
CCN1CCN(C(=O)C(=O)c2cn(CC(=O)N3CCCCCC3)c3ccccc23)CC1	1	-5	17	11	0.9	-1.6	27	i	-0.5	-5
Cc1ccc(/C=N/NC(=O)c2ccc(Cn3cc([N+](=O)[O-])cn3)o2)cc1	3	-5	·	·	·	10	8	·	·	1
c1ccc(Nc2nc(N3CCCC3)nc(N3CCOCC3)n2)cc1	-3	-26	3	3	-4.2	-4.6	27	i	0.0	-5
Cc1[nH]c2ccccc2c1/C=N/NC(=O)c1cc(C(C)C)[nH]n1	-3	-2	-8	-20	-3.0	-1.2	·	i	0.2	10
OCC[C@@H]1C[C@@H](O)[C@H](O)[C@]2(CCCO2)O1	-10	2	1	8	-5.0	2.5	-18	i	-13	·
C=CCSc1nnc(NC(=O)CSCc2c(C)noc2C)s1	-5	·	-4	-10	0.0	·	·	i	-3.7	-2
Cc1nc(Cl)c(C(=O)NC(C)(C)C)c(C)c1Cl	6	-8	·	·	·	0.4	-33	·	·	0
O=C(CCn1c(=O)oc2ccccc21)NCCCN1CCCC1=O	-2	-10	3	4	-2.8	-1.4	-3	i	-8.7	4
O=C(O)c1cc(N2C(=O)C3CCCCC3C2=O)ccc1NCc1cccnc1 (centres undefined)	-2	28	4	3	2.1	?	-6	i	-1.5	-12
CN1CCCN(C(=O)c2cc(-c3cccc4ccccc34)nc3ccccc23)CC1	-6	-1	-2	-9	11	?	19	i	2.4	-4
CCOc1ccc(Cc2noc3c2C(=O)CCC3)cc1OCC	-1	-2	7	-3	-0.6	3.4	4	i	-0.7	1
O=C(COC(=O)COc1ccc(Cl)cc1)NCc1ccc2c(c1)OCO2	-1	·	9	19	-0.5	·	·	i	-2.7	-2
Cc1nc2ccc(C(=O)OCc3nnc(-c4ccccc4)o3)cc2nc1C	·	-6	-17	-24	-1.7	-2.6	-8	i	-1.7	·

The listing continues:
SMILES	Beta apoptosis	Calb FLC	rRNA inh HTS	rRNA inh HTS OD600	rRNA inh HTS RFP	RanGTP-Imp inh	T cruzi repl	FGF22 binding	AF4-AF9 inh	ALR H2O2 inh
Cn1c(N2CCOCC2)c(/C=N/OC(=O)c2cccnc2Cl)c2ccccc21	·	-30	-1	9	-0.5	0.0	7	i	-1.0	·
CCOC(=O)N1CCN(C(=O)Nc2cccc(Cl)c2)CC1	-2	7	·	·	·	-2.0	-23	·	·	3
CCOc1ccc(C2C(C#N)=C(N)Oc3nc[nH]c(=O)c32)cc1OC (centres undefined)	1	25	·	·	·	2.0	-1	·	·	·
CCC(NC(=O)NC1CCCCC1)c1ccccc1 (centres undefined)	2	-16	7	3	0.8	0.2	-5	i	-13	1
CCn1cc(CNC(=O)c2cccc([N+](=O)[O-])c2)cn1	-2	-15	·	·	·	1.7	-10	i	2.4	-4
Cc1cccc(N2CCN(CC(=O)N(C)Cc3ccccc3)CC2C)c1 (centres undefined)	-10	-4	-3	1	1.2	1.6	2	i	1.7	98*
CCCCNC1c2ccccc2C(=O)N1Cc1ccccc1 (centres undefined)	·	-29	-11	-6	-0.4	-2.2	-6	i	4.7	1
